From PubChem BioAssay
Mtb bLac sens: beta-lactam sensitization of Mtb H37Rv. 0.27% of 330,000 active. M. tuberculosis H37Rv growth with meropenem, percent inhibition; hits of this screen are not shown here. AID 434955. inhibition, % at 25 µM;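 active = about 74% or more and at least 40 points above the plate without the antibiotic, then above 30% in a dose series; inconclusive = first-round hits that could not be retested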;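 also: growth measured after seven days incubation then overnight dye step; 0% = bacteria only wells and 100% = bacteria with antibiotic; twin plates without the antibiotic show which effects depend on it; some results filed as inactive read as strong as hits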
Arbovirus anti: blocks arbovirus infection. arbovirus infection cell-based antiviral screen. inhibition, % at 10 µM. 0.37% of 200,000 active;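 active = inhibition from about 30%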;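 also: bluetongue infection of BSR cells; cell survival read as ATP light after 72 h; 0% = infected wells without compound and 100% = uninfected wells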
YopH PTP inh: blocks Yersinia enterocolitica YopH tyrosine phosphatase; fluorescence Ex485/Em525; inhibition, %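 (about 10 µM by stock and volumes)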; 0.16% of 140,000 active;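 active = inhibition of 50% or more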;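 also: controls were vehicle for no effect and minimum signal wells for full effect; inactives centre near -20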
Mtb H37Rv: M. tuberculosis H37Rv growth inhibitors, H37Rv strain (AID 1626) | M. tuberculosis H37Rv growth inhibition; higher % means a stronger effect | one-dose inhibition, % at 10 µM; IC50 in µM for titrated hits | 0.95% of 220,000 active;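 active = confirmed in a dose series; inconclusive = inhibition above 80% but not taken into the dose series; inactive = below 80% or under 30% at every dose of the series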;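 also: bacteria incubated seven days before Alamar blue readout; 0% = bacteria only wells and 100% = bacteria with antibiotic wells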
RecA splice inh: inhibitors of M. tuberculosis RecA intein splicing. 0.75% of 290,000 active. cell-free RecA intein splicing, fluorescence. P9WHJ3. inhibition, %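 (about 9 µM by stock and volumes)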; in the data active = inhibition above about 30%; inconclusive = no clear call, values can overlap the other calls;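 also: 0% = vehicle wells and 100% = reference inhibitor control wells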
Target sequence (P9WHJ3 whole entry, looked up, canonical isoform): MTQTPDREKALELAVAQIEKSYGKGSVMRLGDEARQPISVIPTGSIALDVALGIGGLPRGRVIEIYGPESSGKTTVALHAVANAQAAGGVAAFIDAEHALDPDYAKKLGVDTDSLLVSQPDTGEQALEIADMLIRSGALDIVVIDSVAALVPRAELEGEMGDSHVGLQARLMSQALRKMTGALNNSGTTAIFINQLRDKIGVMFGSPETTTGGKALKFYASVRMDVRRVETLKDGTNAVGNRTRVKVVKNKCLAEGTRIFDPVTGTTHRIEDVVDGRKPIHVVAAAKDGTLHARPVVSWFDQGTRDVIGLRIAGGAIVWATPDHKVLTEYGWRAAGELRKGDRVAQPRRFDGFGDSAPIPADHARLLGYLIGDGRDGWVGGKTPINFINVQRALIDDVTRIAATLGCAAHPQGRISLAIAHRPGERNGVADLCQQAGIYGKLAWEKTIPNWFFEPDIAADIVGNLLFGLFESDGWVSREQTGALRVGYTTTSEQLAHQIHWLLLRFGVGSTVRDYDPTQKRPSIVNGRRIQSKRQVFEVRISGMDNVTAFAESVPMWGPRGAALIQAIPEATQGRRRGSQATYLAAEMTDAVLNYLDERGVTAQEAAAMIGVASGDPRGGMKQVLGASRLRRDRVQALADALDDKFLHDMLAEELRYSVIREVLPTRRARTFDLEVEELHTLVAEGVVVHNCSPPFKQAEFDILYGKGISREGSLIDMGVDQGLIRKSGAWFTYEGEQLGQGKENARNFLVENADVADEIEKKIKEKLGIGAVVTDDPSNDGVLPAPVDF
Arbovirus anti repeat: second read-out of Arbovirus anti, no call of its own (marks repeat the call); inhibition, %; measured here: 10K subset replicate screen; many hits read low in the repeat;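 first of two repeat runs on a subset; 0% = infected and 100% = uninfected wells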
Numbers without * were called inactive; ? = inconclusive; · = no result given. Some of the compounds tested (hit frequency here may not be typical).

SMILES	Mtb bLac sens	Arbovirus anti	YopH PTP inh	Mtb H37Rv	RecA splice inh	others
O=C(NCC1CCCO1)c1ccc(N2CCCCC2)c([N+](=O)[O-])c1 (centres undefined)	5.6	·	·	·	-3.7
CCOC(=O)N1CCN(c2c(NCCOC)c(=O)c2=O)CC1	-3.4	-2.2	-45.2	1.4%	-0.1
Cc1nc2cncc(Br)c2n1C	-12.2	2.6	-6.0	-8.3%	-1.3
Cc1c(C)n(CCCN(C)C)c2ncnc(NCc3ccccc3)c12	-4.2	·	·	·	-3.3
Cc1ccc(N2C(=O)Nc3ccc(Br)cc3C2(O)C(=O)NCCCN(C)C)cc1C (centres undefined)	-4.0	5.7	-29.5	-5.4%	·	Arbovirus anti repeat=2.8
O=S(=O)(Nc1ccc(-c2cn3ccccc3n2)cc1)c1ccccc1	-8.8	·	·	-1.5%	3.5
Cc1ccc(C(=O)C2C(c3ccc(-c4ccccc4[N+](=O)[O-])o3)NC(=O)NC2(O)C(F)(F)F)cc1 (centres undefined)	7.6	·	8.4	1.2%	83.1*
CC(NS(=O)(=O)/C=C/c1ccccc1)C(=O)NCCc1ccc(S(N)(=O)=O)cc1 (centres undefined)	7.2	-0.1	·	-3.7%	0.6
Cc1ccc(NC(=S)N2CCN(C)CC2)c(C)c1	-0.6	0.6	3.0	11.2%	-11.6
COc1ccc(CNC(=O)COC(=O)CCC2CCCCC2)cc1	1.4	1.8	-25.5	1.1%	1.2
CCOC(=O)C1=NNC2C(=O)N(C3CCCCC3)C(=O)C12 (centres undefined)	-9.8	0.3	21.9	-2.9%	-1.6
COc1ccc2c(c1)c1ncn(Cc3ccccn3)c(=O)c1n2C	-3.4	·	·	-6.9%	·
CCOC(=O)Cn1cncc1-c1ccc([N+](=O)[O-])cc1	-6.0	0.7	-5.3	-6.1%	-2.2
CC(C)N(Cc1ccccc1)C(=S)Nc1cccnc1	-12.2	10.0	·	-10.9%	-1.0
COC(=O)/C=C/c1c(C)[nH]c(=O)[nH]c1=O	-4.5	·	·	-3.2%	1.9
Cc1cccc(-n2cc(-c3ccc([N+](=O)[O-])cc3)[nH]c2=S)c1	5.4	-7.6	-25.6	-2.4%	1.5
CCC(C)(C)NC(=O)C(c1ccc(OC)cc1)N(C(=O)CCC(=O)Nc1cc(C)on1)c1ccc2c(c1)OCCO2 (centres undefined)	4.1	·	·	·	0.1
CC(C)(CO)C(O)C(=O)NCCC#N (centres undefined)	-1.8	0.0	·	-3.3%	0.1	Arbovirus anti repeat=2.6
O=C(NC1CCCCCCC1)C1CCN(S(=O)(=O)N2CCCC2)CC1	2.1	-9.9	-53.6	-0.6%	0.7
Cc1c(Cl)cccc1N1C(=O)c2ccccc2C1=O	-5.3	11.9	8.5	·	3.8
CC(C)NS(=O)(=O)c1ccc(OCC(=O)Nc2ccc3c(c2)OCO3)cc1	-7.7	-1.8	·	2.2%	-1.5
CN(C)S(=O)(=O)c1cccc(C(=O)NCc2cccs2)c1	-1.8	10.7	-23.1	-5.2%	-0.4
Cc1ccccc1NS(=O)(=O)c1cc(C(=O)Nc2cccc(N(C)S(C)(=O)=O)c2)ccc1C	10.2	-8.0	-30.5	0.2%	·
COc1ccc(Cl)cc1C(=O)NN=C1CCCC1	-5.8	·	·	·	-0.9
CC1CN(C(=O)c2cn3ccccc3n2)CC(C)O1 (centres undefined)	-9.0	-0.8	-46.1	0.6%	-4.6

Three structures from above, arranged by count of non-hydrogen atoms, smallest number first.
SMILES	Mtb bLac sens	Arbovirus anti	YopH PTP inh	Mtb H37Rv	RecA splice inh	others
Cc1c(Cl)cccc1N1C(=O)c2ccccc2C1=O	-5.3	11.9	8.5	·	3.8
Cc1c(C)n(CCCN(C)C)c2ncnc(NCc3ccccc3)c12	-4.2	·	·	·	-3.3
CC(C)NS(=O)(=O)c1ccc(OCC(=O)Nc2ccc3c(c2)OCO3)cc1	-7.7	-1.8	·	2.2%	-1.5

7 compounds drawn at random from those above, as already listed:
SMILES	Mtb bLac sens	Arbovirus anti	YopH PTP inh	Mtb H37Rv	RecA splice inh	others
COc1ccc2c(c1)c1ncn(Cc3ccccn3)c(=O)c1n2C	-3.4	·	·	-6.9%	·
COc1ccc(CNC(=O)COC(=O)CCC2CCCCC2)cc1	1.4	1.8	-25.5	1.1%	1.2
COc1ccc(Cl)cc1C(=O)NN=C1CCCC1	-5.8	·	·	·	-0.9
CC1CN(C(=O)c2cn3ccccc3n2)CC(C)O1 (centres undefined)	-9.0	-0.8	-46.1	0.6%	-4.6
Cc1ccc(N2C(=O)Nc3ccc(Br)cc3C2(O)C(=O)NCCCN(C)C)cc1C (centres undefined)	-4.0	5.7	-29.5	-5.4%	·	Arbovirus anti repeat=2.8
CN(C)S(=O)(=O)c1cccc(C(=O)NCc2cccs2)c1	-1.8	10.7	-23.1	-5.2%	-0.4
CC(NS(=O)(=O)/C=C/c1ccccc1)C(=O)NCCc1ccc(S(N)(=O)=O)cc1 (centres undefined)	7.2	-0.1	·	-3.7%	0.6

Back to the main list, repeating the four entries before the break.
SMILES	Mtb bLac sens	Arbovirus anti	YopH PTP inh	Mtb H37Rv	RecA splice inh	others
CN(C)S(=O)(=O)c1cccc(C(=O)NCc2cccs2)c1	-1.8	10.7	-23.1	-5.2%	-0.4
Cc1ccccc1NS(=O)(=O)c1cc(C(=O)Nc2cccc(N(C)S(C)(=O)=O)c2)ccc1C	10.2	-8.0	-30.5	0.2%	·
COc1ccc(Cl)cc1C(=O)NN=C1CCCC1	-5.8	·	·	·	-0.9
CC1CN(C(=O)c2cn3ccccc3n2)CC(C)O1 (centres undefined)	-9.0	-0.8	-46.1	0.6%	-4.6
Nc1c(C(=O)NCC2CCCO2)c2nc3ccccc3nc2n1Cc1ccco1 (centres undefined)	18.0	·	·	5.1%	-265.4
CC(C)(C)SCCNC(=O)/C=C/c1ccc(F)cc1	-3.5	2.0	0.4	3.4%	-1.4
O=C(Nc1cc(Cl)ccc1-n1cncn1)c1cc(F)c(F)c(F)c1F	-2.4	·	·	·	2.0
S=c1[nH]c2ccc(Cl)cc2s1	-0.4	·	·	0.4%	-2.1
CCCCNC(=O)CSc1nc2ccccc2c(=O)n1Cc1ccc2c(c1)OCO2	-5.3	-1.3	-9.6	-1.2%	2.2
CC(C)(C)n1[nH]c2c3c(ccc2c1=O)C(=O)c1ccccc1C3=O	2.0	-36.8	16.7	0.6%	6.1
COC(=O)c1cc(-c2ccc(OC)cc2F)nc2nc(SC)[nH]c(=O)c12	4.3	·	·	·	1.1
COC(=O)CN1C(=O)N/C(=C/c2ccc(OC)cc2)C1=O	-5.8	1.1	·	4.3%	-1.6
O=C(CN1CCOCC1)NCC12CC3CC(CC(C3)C1)C2	3.1	3.6	-44.8	-5.2%	-2.3
NC(=O)COC(=O)c1cc(-c2cccs2)nn1-c1ccccc1	-2.4	19.6	·	-4.9%	1.3
CCn1nc(C(=O)OC2CCOC2=O)c2ccccc2c1=O (centres undefined)	-4.8	13.3	-65.5	-3.7%	·
Cc1ccc(NC(=O)CSc2nc3ccccc3c(=O)n2CCCN2CCCCC2)cc1C	12.1	-32.1	-78.0	10.6%	5.6
C=CCn1c(=N)n(CC(O)COc2ccccc2OC)c2ccccc21 (centres undefined)	1.8	-10.1	-16.9	-1.3%	-1.1	Arbovirus anti repeat=7.3
CCCCC(=O)Nc1sc2c(c1C#N)CC(C)(C)OC2	0.4	0.4	-27.4	-0.3%	-0.8
CC(Sc1nc(-c2ccccc2)cc(C(F)(F)F)n1)C(=O)NCc1ccco1 (centres undefined)	-1.3	-7.2	0.1	9.9%	-1.4
COc1ccc(N2C(=O)C3C4C=CC(CC4)C3C2=O)c([N+](=O)[O-])c1 (centres undefined)	46.0	-4.6	-20.5	-5.8%	-5.9
CCOC(=O)c1sc2ncn(/N=C/N(C)C)c(=O)c2c1C	7.7	0.7	-8.0	-1.6%	0.3
Cc1cc(N/N=C/c2ccc3c(c2)OCO3)nc2ccccc12	92.3	·	·	64.7%	-2.0
CCOC(=O)N/N=C/c1cccc(Cl)c1Cl	-0.5	-0.3	-27.1	-1.5%	0.7
CC(=O)Nc1ccc(Nc2nc(-c3cc4ccccc4oc3=O)cs2)cc1	-0.1	·	·	·	-3.1
CC1CCCCN1S(=O)(=O)c1ccc(NC(=O)c2ccco2)cc1 (centres undefined)	-5.4	-3.7	-4.2	0.3%	2.5
CCOC(=O)c1ccc(N=C2SC(C(=O)NC)CC(=O)N2Cc2ccc(F)cc2)cc1 (centres undefined)	-1.7	15.7	·	-3.4%	-1.5
O=C(Cn1cnc2c(cnn2-c2ccc(F)cc2)c1=O)N1CCN(c2ccccc2F)CC1	10.7	-22.3	3.1	3.9%	-4.3
O=C(c1ccc2c(c1)OCO2)N1CCN=C1SCc1cccnc1	6.6	-2.7	-44.3	-0.9%	·
CC(C(=O)OCC(=O)Nc1cccc(S(=O)(=O)N2CCOCC2)c1)N1C(=O)c2ccccc2C1=O (centres undefined)	-0.1	8.5	·	1.1%	-0.8

More records follow:
SMILES	Mtb bLac sens	Arbovirus anti	YopH PTP inh	Mtb H37Rv	RecA splice inh	others
Cc1ccc(N(CC(N)=O)C2SC(=O)N(Cc3ccccc3)C2=O)cc1 (centres undefined)	6.3	4.5	-48.5	5.0%	-0.5
CC1CCN(S(=O)(=O)c2cccc(C(=O)O)c2)CC1	·	7.7	-27.4	-5.3%	1.2
NC(=O)CC[C@@H]1NC(=O)C(Cc2ccc(O)cc2)NC(=O)c2cc([N+](=O)[O-])cc(F)c2NCCC[C@@H](C(N)=O)NC1=O (some centres undefined)	·	6.7	9.0	-3.5%	·
O=[N+]([O-])c1ccc(/C=N/n2c(CO)nc3ccccc32)s1	100.1	-6.1	-11.8	0.523µM*	-1.1
COC(=O)NCC12CC3CC(C1)CC(CNC(=O)OC)(C3)C2	?	-5.5	-28.0	-4.8%	2.0
Cc1ccccc1NS(=O)(=O)c1csc(C(N)=O)c1	-1.0	·	·	·	6.5
CCOc1ccccc1C=Nc1ccccc1C(=O)Nc1ccccc1	-4.7	2.0	-20.8	-0.1%	1.1
CCCN(CCC)CCNC(=O)CCC(=O)Nc1ccc2nc(N3CCOCC3)cc(C)c2c1	5.5	·	·	·	-0.9
C/C(=N\NC(=O)c1c(Cl)c(C)nn1C)c1ccc(NC(=O)c2ccncc2)cc1	4.2	40.6*	-2.4	-2.0%	-0.6
CC(C)CNc1c2c(nc3ccccc13)CCC2	?	·	·	·	-0.2
CCOc1ccc2nc(NC(NC(C)=O)(C(=O)OC)C(F)(F)F)sc2c1 (centres undefined)	21.5	0.5	-20.3	3.5%	-1.6
Cc1cc(OCC(=O)Nc2ccncc2)cc(C)c1Br	44.9	-9.0	-9.5	-4.4%	6.1
Cc1ccc2[nH]c3c(c2c1)CNCC3	-3.0	·	·	·	-0.5
COc1ccc(C2C3CCCCC3(O)CCN2C(=O)c2cccs2)cc1 (centres undefined)	0.4	6.2	-8.5	·	0.4
O=C(O)c1ccc(N2CCN(c3ccc(Cl)cc3)CC2)c([N+](=O)[O-])c1	1.2	·	·	·	5.7
CCc1cccc(CC)c1N1C(=O)c2cc(N3CCOCC3)c([N+](=O)[O-])cc2C1=O	2.7	2.2	-10.0	-0.9%	1.5
Cc1nonc1OCCNCCNc1ccc([N+](=O)[O-])cc1Cl	-12.5	0.9	·	8.0%	2.8
COc1ccc(-c2cc(C)no2)cc1S(=O)(=O)Nc1cccc(C)c1	-4.5	·	·	·	-4.1
COc1ccc(Cc2nc(C(=O)Nc3ccc(F)cc3)cs2)cc1	-4.1	13.1	1.1	7.8%	11.7
CCc1cccc(OCC(=O)N(C)CC(=O)Nc2cccc(F)c2)c1	-4.7	·	·	·	0.6
O=C1ON=C(c2ccc([N+](=O)[O-])cc2)/C1=C/c1ccccc1O	-3.3	·	·	·	-1.5
CCOC(=O)c1cc2c(ccn2C)n1Cc1ccc(Cl)cc1	1.6	1.4	·	4.5%	·
CCOc1ccc(C(=O)NCC(=O)OCC(=O)Nc2ccccc2OC)cc1	-12.2	2.4	-14.7	-0.2%	-0.1
CCOC(=O)c1c(COc2ccccc2)oc2ccc(O)cc12	20.4	1.9	-31.5	7.6%	·
COCC(=O)c1[nH]c2ccccc2c1C	71.3	-0.8	-44.4	2.6%	9.4
COC(=O)c1ccc(Cl)c(NC(=O)CN(c2ccccc2)S(=O)(=O)c2ccc(OC)cc2)c1	-3.0	-1.1	-30.8	7.1%	0.9
CCCCC(CCC(=O)Nc1cccc([N+](=O)[O-])c1)C(=O)O (centres undefined)	2.1	·	·	-8.2%	-2.2
